Screens: PubChem BioAssay, National Center for Advancing Translational Sciences (NCATS)
StopGo RLuc – FMDV 2A StopGo reporter, Renilla signal; HEK cells with a luciferase reporter of 2A StopGo recoding; Potency, µM (series often up to 57.5 µM), inactives show at the top dose signal change, negative = less light; actives 0.32% (n = 120,000); AID 1745857; active means well fitted falling curve with a large enough effect; inconclusive means small, poorly fitted or top-dose-only effect; inactive means no such curve, though single readings can be large or run the other way; note: nearly all actives have a fitted effect of over 55% in size; overnight with compound
StopGo FLuc – FMDV 2A StopGo reporter, firefly signal | Potency, µM (series often up to 57.5 µM), for inactives: at the highest dose signal change, negative = less light | actives 0.23% (n = 120,000) | HEK cells with a luciferase reporter of 2A StopGo recoding; active = well fitted falling curve with a large enough effect; inconclusive = small, poorly fitted or top-dose-only effect; inactive = no such curve, though single readings can be large or run the other way; note: nearly all actives have a fitted effect of over 60% in size; overnight with compound
An asterisk follows results filed as active; u = inconclusive; [ ] = dose if it differs, or a comment. % is set by controls: 0 for no effect and ±100 for the full control effect; potency is the fitted concentration of half-maximal effect.

SMILES | StopGo RLuc | StopGo FLuc
CCS(=O)(=O)N1CC(=O)N(c2cc(C)ccc2C)C(C)(C(=O)NC2CCCCC2)C1 (centres undefined) | -5% | -12%
O=C1OC(c2ccc(O)cc2)(c2ccc(O)cc2)c2ccccc21 | 3% | -8%[11.5 µM]
COc1ccc(OC)c(C2CC(=O)Nc3c2c(=O)[nH]c2ncnn32)c1 (centres undefined) | -5% | -4%
O=c1[nH]c(SCc2c(F)cccc2Cl)nc2c1CCC2 | -13% | -1%
Cc1ccc2c(=O)cc(C(=O)Nc3sc4c(c3C(=O)NCC3CCCO3)CCCC4)oc2c1 (centres undefined) | -13% | -14%
CCOC(=O)c1cccc(NC(=O)NC(C)c2c(-n3cccc3)sc3c2CCN(C)C3)c1 (centres undefined) | -9% | 29%
Cc1cc(C)cc(-n2ccn3c(CCCC(=O)NCc4cccs4)nnc3c2=O)c1 | -9% | -1%
Cc1c(CCNC(=O)c2ccc(Br)o2)sc2nc(-c3ccc(F)cc3)nn12 | u | -24%
COc1ccc(N(Cc2cccs2)C(=O)Cn2nnc(-c3ccc(F)cc3)n2)cc1 | -4% | 0%
COc1ccc(-c2cc(C(=O)NC(C)c3ccccc3)c3cc(C(C)C)ccc3n2)cc1 (centres undefined) | -3% | -22%
O=C(CCS(=O)(=O)c1nc(-c2cccs2)cc(C(F)(F)F)n1)Nc1cc(Br)ccc1O | 4% | u
Cc1cnc2c(S(=O)(=O)NCC3CCOC3)cccc2c1 (centres undefined) | 48%[activator] | 11%
C=CCn1c(SCC(=O)Nc2ccccc2)nc2c1c(=O)[nH]c(=O)n2C | -10% | -2%
Cc1ccccc1-c1nc(CN2CCC(C(=O)NCc3ccccc3Cl)CC2)c(C)o1 | 8% | 11%
COc1cc(/C=C/c2nc3cc(C)c(C)cc3s2)cc(OC)c1 | 29% | 0%

Single records, as listed above. Order of values: StopGo RLuc | StopGo FLuc
C=CCn1c(SCC(=O)Nc2ccccc2)nc2c1c(=O)[nH]c(=O)n2C in the list: -10% | -2%
O=c1[nH]c(SCc2c(F)cccc2Cl)nc2c1CCC2 in the list: -13% | -1%

Continuation.
SMILES | StopGo RLuc | StopGo FLuc
COc1ccc2cnn(CC(=O)Nc3cccc(Cl)c3)c(=O)c2c1OC | 1% | 0%
CCOC(=O)c1ccc(NC(=O)Nc2c[nH]c(=O)[nH]c2=O)cc1 | -8% | 14%
CCCNC(=O)C(C)NC(=O)Cc1ccc(S(=O)(=O)N2CCCCC2)cc1 (centres undefined) | 7% | 2%
CCOc1ccc(CCNC(=O)c2cn(-c3ccc(OC)cc3)c(=O)c3ccccc23)cc1OCC | 5% | 25%
COc1ccc(C(=O)Nc2oc3ccc(Cl)cc3c(=O)c2-c2ccc(OC)cc2)cc1 | -5% | 9%
CCOc1ccc(NC(=O)COc2ccc(S(=O)(=O)NC3CCCCC3)cc2)cc1 | 126%[activator] | u
COC(=O)[C@H]1C2CCC(C(=O)OC)(CC2)[C@H]1C(=O)OC | 11% | 3%
CCN(Cc1nc2cc(Cl)ccc2c(=O)[nH]1)C(=O)CNC(=O)c1ccc(F)cc1 | 7% | 12%
CCc1ccc(CNC(=O)c2ccc3c(Cl)c4c(nc3c2)CCCC4)cc1 | 2% | -8%
Cc1cc(C)n(-c2nc3cc(Cl)ccc3nc2NCc2ccncc2)n1 | -7% | 0%
Cc1cccc(NS(=O)(=O)c2ccc3c(c2)CCN3C(=O)CCC(=O)O)c1C | 31%[activator] | -17%
O=c1oc2cc(O)ccc2cc1-c1nc2ccccc2s1 | -6% | 158%[activator]
O=C(/C=C/c1c(Cl)cccc1Cl)c1ccc(OC(F)F)cc1 | 69%[activator] | 0%
CCOc1ccc(CCNC(=O)C2=C(C)C(=O)OC23CCC(C)CC3)cc1OCC (centres undefined) | 0% | 19%
c1csc(C2NCCc3sccc32)c1 (centres undefined) | 5% | 20%

Some of the entries so far, with values under each structure:
Results follow in this order: StopGo RLuc | StopGo FLuc
CCCNC(=O)C(C)NC(=O)Cc1ccc(S(=O)(=O)N2CCCCC2)cc1 (centres undefined)
  7% | 2%
CCOc1ccc(CCNC(=O)c2cn(-c3ccc(OC)cc3)c(=O)c3ccccc23)cc1OCC
  5% | 25%
COc1ccc(C(=O)Nc2oc3ccc(Cl)cc3c(=O)c2-c2ccc(OC)cc2)cc1
  -5% | 9%
CCOc1ccc(NC(=O)COc2ccc(S(=O)(=O)NC3CCCCC3)cc2)cc1
  126%[activator] | u

Compounds shown so far containing an aryl thioether with sulfur outside any ring:
SMILES | StopGo RLuc | StopGo FLuc
O=c1[nH]c(SCc2c(F)cccc2Cl)nc2c1CCC2 | -13% | -1%
C=CCn1c(SCC(=O)Nc2ccccc2)nc2c1c(=O)[nH]c(=O)n2C | -10% | -2%

(listing goes on)
SMILES | StopGo RLuc | StopGo FLuc
Cc1ccc(C2C(=O)N(C3CCC(C)CC3)CC(=O)N2C2CCCC2)cc1 (centres undefined) | -1% | -19%
CCOc1cccc(NC(=O)CSc2ncc(-c3ccc(Cl)cc3)[nH]2)c1 | 1% | -10%
Cc1ccc2c(C)nc(Nc3nc(C)c(C)c(=O)[nH]3)nc2c1 | 14% | 111%[activator]
CN(CC1COc2ccccc2O1)S(=O)(=O)N1CCOCC1 (centres undefined) | 7% | 1%
Oc1ccc(C2(c3cccc(Cl)c3)CCCC2)cc1 | 19% | 18%
CCCNC(=O)Cc1ccc(NC(=O)N2CCSc3ncccc32)cc1 | 0% | 61%[activator]
COc1ccc(C)cc1NC(=O)CN(C)S(=O)(=O)c1ccc2c(c1)CCCN2C(C)=O | -5% | -14%
Cc1ccc(/C=C/c2onc(C)c2S(=O)(=O)N2CCC(C(=O)NCc3ccc(C)o3)CC2)cc1 | -11% | -8%
COc1ccc(OC)c(CN2CCCC(C(=O)N3CCCCCC3)C2)c1 (centres undefined) | 8% | 28%
CCC(C)c1ccc(NC(=O)COC(=O)c2nn(C)c(=O)c3ccccc23)cc1 (centres undefined) | -15% | 1%
CCOc1ccccc1NC(=O)C(NS(=O)(=O)c1ccc2c(c1)CCC(=O)N2)c1ccccc1 (centres undefined) | 10% | -21%
Nn1c(SCC(=O)NCCc2ccccc2)nnc1-c1ccco1 | -10% | 0%
CN(C(=O)c1ccc(Cl)cc1)c1nc2ccccc2o1 | -3% | 7%
CCOC(=O)CCc1c(C)[nH]n(-c2nc3ccccc3[nH]2)c1=O | 20% | 106%[activator]
CCCCN(CC)C(=O)Cn1c(=O)n(-c2ccc(OCC)cc2)c(=O)c2c3c(sc21)CCC3 | -2% | 7%
CCSc1ncc(Cl)c(C(=O)Nc2ccc(S(=O)(=O)N3CCCCC3)cc2)n1 | 31%[activator] | u
CSc1cccc(NC(=O)c2ccc(Cl)cc2I)c1 | 25% | 81%[activator]
CC(=O)N1c2ccccc2CC1C(=O)N1CCN(c2ccccc2F)CC1 (centres undefined) | -15% | 5%
Cc1ccc(NC(=O)C2CCN(S(=O)(=O)c3c(C)noc3C)CC2)cc1 | 3% | 2%
Cc1ccc(CCNC(=O)CN2C(=O)CN(C(=O)NCc3ccccc3)c3ccccc32)cc1 | 16% | 10%
C=CCn1c(N2CCN(Cc3ccccc3)CC2)nc2c1c(=O)n(C)c(=O)n2C | -12% | -7%
CCc1cc(CC)n(-c2nc3c(c(=O)n(CC(N)=O)c(=O)n3C)n2CCC(C)C)n1 | -17% | -8%
CCc1ccc(C2CC(=O)NC3=C2C(=O)CC(c2ccc(OC)cc2)C3)cc1 (centres undefined) | 3% | 11%
CC(C)CCNC(N)=S | 13% | -2%
Cc1cc(C)nc(SCc2nc3ccc(Cl)cn3c2Br)n1 | 19% | 22%
Cc1ccc(CNc2nc(-c3ccco3)nn2S(=O)(=O)c2ccc3ccccc3c2)cc1 | 139%[activator] | 100%[activator]
CCCCNC(=O)c1ccc2c(c1)NC(=O)C(CS(=O)(=O)Cc1cccc(C)c1)N2 (centres undefined) | 8% | 17%
O=C(NCc1ccc(F)cc1)c1ccc(Nc2nc3ccccc3n3nnnc23)cc1 | -6% | 20%
Cn1ccc(NC(=O)CCc2ncc(-c3ccc(Cl)cc3)o2)n1 | -9% | 13%
CCOC(=O)c1ccc(Oc2coc3cc(OCc4ccc(C)cc4)ccc3c2=O)cc1 | -9% | -4%

An excerpt from above in order of molar mass, highest first:
SMILES | StopGo RLuc | StopGo FLuc
Cc1ccc2c(=O)cc(C(=O)Nc3sc4c(c3C(=O)NCC3CCCO3)CCCC4)oc2c1 (centres undefined) | -13% | -14%
COc1ccc(C)cc1NC(=O)CN(C)S(=O)(=O)c1ccc2c(c1)CCCN2C(C)=O | -5% | -14%
Cc1ccc(C2C(=O)N(C3CCC(C)CC3)CC(=O)N2C2CCCC2)cc1 (centres undefined) | -1% | -19%

Continuation.
SMILES | StopGo RLuc | StopGo FLuc
CCOCCCNC(=O)c1c[nH]c2ccc(S(=O)(=O)Nc3cccc(Cl)c3C)cc2c1=O | 99%[activator] | -12%
COc1ccc(Cl)cc1NC(=O)c1cnc2sc(N3CCOCC3)nn2c1=O | -6% | -9%
CN(C)CCCNCc1ccccc1 | -21% | -21%
CC(C)C(NC(=O)c1ccccn1)C(=O)O (centres undefined) | 11% | -5%
O=C(Nc1ccc(F)c(Cl)c1)C1CCCN(c2ncnc3nc[nH]c23)C1 (centres undefined) | -13% | -5%
COc1ccc(OC)c(NC(=O)Nc2c(C)n(C)n(-c3ccccc3)c2=O)c1 | -8% | -3%
COc1ccc(NC(=O)CSc2nc(-c3ccco3)cc(C(F)(F)F)n2)c(OC)c1 | -9% | -13%
COc1cc(C)cc2oc(=O)c(CC(=O)Nc3nc(CC(=O)O)cs3)c(C)c12 | -4% | 2%
O=C(NCCn1cc(SCc2ccc(Br)cc2)c2ccccc21)c1cccs1 | -14% | -29%
Cc1cc(Nc2cccc(C(F)(F)F)c2)ncn1 | -5% | 10%
COC(=O)c1cc2oc3ccccc3c2n1Cc1cccc(C)c1 | -8% | -5%
Cc1ccc(CC(=O)NC(C)c2ccccn2)cc1C (centres undefined) | 10% | 20%
CCOc1ccccc1C(=O)N1CC(=O)Nc2ccc(Cl)cc2C1c1ccccc1 (centres undefined) | 102%[activator] | 5%
CCOc1ccc(NC(=O)Cn2c(=O)n(CC3CCCO3)c(=O)c3ccccc32)cc1 (centres undefined) | 7% | -9%
O=C1NC(c2ccccc2)(c2ccccc2)C(=O)N1Cc1coc(-c2cccs2)n1 | 2% | -17%
Fc1ccc(CN2CCc3ccccc3C2)c(Cl)c1 | 1% | 87%[activator]
CCOC(=O)c1[nH]c(C)c(CCC(=O)Nc2ccc(Br)c(C)c2)c1C | -11% | -14%
CCn1c(SCC(=O)N(C)CCOc2ccc(Br)cc2)nnc1C1CC1 | 6% | -3%
CC1=C(/C=C/C(C)=C/C=C/C(C)=C/C(=O)Nc2ccc(O)cc2)C(C)(C)CCC1 | -9% | -4%
Cc1cc(N2CCCCC2)nc2ccc(NC(=O)/C=C/c3ccccc3OC(C)C)cc12 | -10% | -7%
CCN1CCN(CC(=O)c2c(C)[nH]c3ccccc23)CC1 | -12% | -11%
COc1ccc(-c2noc(CSc3nc(C)cc(=O)[nH]3)n2)cc1OC | 4% | 10%
COc1ccc(C(=O)/C(=C/c2ccco2)c2nc3ccccc3o2)cc1 | -3% | 77%[activator]
O=C(COCc1cc(-c2cccs2)on1)NCc1ccc(F)cc1 | -19% | -17%
CCc1c(C)sc(NC(=O)c2ccc(Cl)cc2Cl)c1C#N | -13% | 65%[activator]
Cc1ccc(C)c(S(=O)(=O)c2nnn3c2nc(NCc2cccs2)c2sccc23)c1 | 97%[activator] | u
COc1cccc(-c2[nH]nc3c2C(c2ccc(OC)c(OC)c2OC)C(C#N)=C(N)O3)c1 (centres undefined) | -9% | 6%
CN(C)c1ccc(NC(=O)CSc2ccc(F)cc2)cc1 | 19% | 0%
CCC(C)NC(=O)Nc1ccc(-c2noc(-c3ccncc3)n2)cc1 (centres undefined) | 7% | 54%[activator]
Cc1oc(-c2cccs2)nc1CC(=O)NC(C)C12CC3CC(CC(C3)C1)C2 (centres undefined) | 27% | -16%
O=C(COC(=O)c1cccc(S(=O)(=O)N2CCCCC2)c1)NCc1ccc2c(c1)OCO2 | 2% | -1%
O=S(=O)(c1ccc2[nH]c3c(c2c1)CCCC3)N1CCN(c2cccc(C(F)(F)F)c2)CC1 | 6% | -1%
Cc1cc(C)n(CC(=O)Nc2ccc(C(=O)N3CCN(c4ccccc4)CC3)cc2)c(=O)c1C#N | -12% | 20%
O=C(O)CCCCNCc1ccc(C(=O)O)cc1 | 4% | 7%
COc1cccc(C(=O)NC2=NC(c3ccc(N(C)C)cc3)CC(=O)N2)c1 (centres undefined) | -8% | -2%
COC(=O)C(C)(C)NC(=O)CNC(=O)OCc1ccccc1 | -1% | 4%
CN(C)CCN(C/C=C/c1ccccc1)C/C=C/c1ccccc1 | 26% | 39%[activator]
Cc1ccc(NC(=O)Nc2nnc(SCC(=O)N3CCC(C)CC3)s2)cc1 | -2% | -15%
C=CCOc1cccc(NC(=O)c2ccccc2C)c1 | 15% | 112%[activator]
O=C(c1ccc2c(c1)CCN2S(=O)(=O)c1ccc(Br)cc1)N1CCCC1 | -11% | u
COc1ccc(-c2nc3ccccc3o2)cc1NC(=O)c1ccc(Cl)cc1 | -9% | 0%

A portion of the library; rates above refer to the full screens.
